Assay outcomes (PubChem BioAssay)
NOMO-1 viab: STK33 inhibitor candidate reducing NOMO-1 cell viability; NOMO-1 AML viability, CellTiter-Glo luminescence, 72 h; hit rate 7.5% among 37,000; inhibition, % (concentration not given with the values);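 active = most replicates above 80%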;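 note: wells of about 30 µL received 25 nL stock; 0% = median of vehicle wells and 100% = reference inhibitor level; the first replicate is given; inactives centre near 10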
* marks the source's active call; other numbers are inactive results. Some of the compounds tested; count on the stated rates, not on these rows.

COc1c(O)cc2c(c1O)C1OC(CO)C(O)C(O)C1OC2=O (centres undefined) was read as NOMO-1 viab -6.
Screening CCOC(=O)c1ccc2nc(C(F)(F)F)nc(NCc3ccc(Cl)cc3)c2c1 returned NOMO-1 viab 61.
For Cc1ccc(Cl)cc1N(CC(=O)Nc1c(F)cccc1F)S(C)(=O)=O the results were NOMO-1 viab 17.
For O=C(O)CN1C(=O)c2cccc3cccc(c23)C1=O the results were NOMO-1 viab 20.
